Compound activity deposited in PubChem BioAssay by several laboratories.
PrP UTR inh – suppresses PrP 5' UTR mRNA reporter expression; cell-based PrP 5' UTR mRNA reporter, plate reader; inhibition, % (concentration not given with the values); 0.35% of 340,000 active; AID 488862;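 active means every replicate at 50% or more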;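 further: 0 = median of the neutral control wells; tested in H4 reporter cells; numbers are from one replicate; inactives centre near -14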
Sa RN4220 lethal – kills Staphylococcus aureus RN4220; S. aureus RN4220 growth, OD600, 16 h; inhibition, % (no concentration beside the values); 0.33% of 330,000 active;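 active means z-score of -3 or lower and OD600 up to 0.18 on both plates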;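 further: plate controls were untreated cells for no effect and reference antibiotic for full effect; stock transfer was 100 nL into about 80 µL; one replicate is shown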
Autofluor counter – compound fluorescence in toxin protease inhibitor counterscreen. compound autofluorescence counterscreen, microsphere flow cytometry; stronger effect = higher value. fluorescence intensity (test concentration not listed). 3.1% of 360,000 active. AID 624483;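 active means at least 3 SD above the mean of all compounds, about 16000 in these data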;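 further: 100 nL of 1 mM stock went into each well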
Mtb hypoxia rep – reduces hypoxia-regulated biosensor signal in M. tuberculosis | M. tuberculosis hypoxia-regulated fluorescent reporter, fluorescence | fluorescence inhibition, % (test concentration not listed) | 0.1% of 300,000 active | AID 1159583;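 active means 35 to 45% if threefold the growth effect, above 45% if 1.5-fold the growth effect; inactive means the rest, general growth blockers included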;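 further: wells of about 50 µL received 100 nL stock; 0% = vehicle wells and 100% = reference inhibitor wells; whole bacteria with a GFP reporter of the hypoxia response; strong numbers were not always called active; many hits fall short of the cut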
ugtP null kill – compounds lethal to S. aureus RN4220 ugtP deletion mutant. growth inhibition, % (test concentration not listed). OD600 growth, 16 h; some inactives read as strong as hits. 0.54% of 330,000 active;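 active means z-score under -3 and OD600 up to 0.15 on both plates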;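 further: plate controls were untreated wells for no effect and antibiotic for full effect; wells of about 80 µL received 100 nL stock; the first replicate is given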
BJeLR viability – kills HRASV12-expressing BJeLR cells. BJeLR (HRASV12) viability, CellTiter-Glo ATP luminescence, 48 h; reference of the scale not given here. inhibition, % (concentration not given with the values). 0.17% of 300,000 active;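 active means replicate mean above 50%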;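 further: 50 nL library stock added to about 25 µL; numbers are from one replicate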
Mtb hypoxia rep growth – second read-out of Mtb hypoxia rep, no call of its own (marks repeat the call); growth inhibition, %; measured here: M. tuberculosis growth (absorbance);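 0% = vehicle and 100% = reference antibiotic; read after six days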
Active calls of the source: *; . = not tested or not shown. Rows were taken by chance. About 4% of those tested had a hit in this group.

no. | SMILES | PrP UTR inh | Sa RN4220 lethal | Autofluor counter | Mtb hypoxia rep
1 | CCCc1cc(=O)[nH]c(SCC(=O)NC2CCCCC2)n1 | 8 | 0.7 | 5486 | -5
2 | O=C(c1cc2ccccc2cc1OCC(O)CN1CCCCC1)N1CCCCC1 (centres undefined) | -16 | -4.5 | 6457 | 7
3 | NC(=O)C1CC2(CC(c3cccc(NC(=O)c4ccccc4)c3)=NO2)CN1C(=O)C1CCC(=O)N1 (centres undefined) | . | 7.5 | . | 6
4 | COC(=O)/C(C#N)=C/c1c(N2CCCCCC2)nc2ccccn2c1=O | 3 | 7.1 | 2936 | 6
5 | CCn1c(C)nc2cc(C(=O)NNC(=S)Nc3ccccc3Cl)ccc21 | -52 | 2.9 | 1956 | 8
6 | COc1ccc(NC(C)=O)cc1S(=O)(=O)Nc1ccccc1C(=O)N1CCCC1 | -18 | 3.8 | 3780 | 3
7 | C=CCNc1nc2c(c(=O)[nH]c(=O)n2C)n1CCOc1ccccc1 | -5 | 2.0 | 3219 | 16
8 | Cc1noc(C(=O)Nc2ccc(F)c(Cl)c2)c1Cl | -24 | 0.3 | 3806 | 5
9 | Cc1cc(OC(=O)c2ccccc2)c([N+](=O)[O-])c(=O)[nH]1 | -7 | 2.4 | 2727 | 5
10 | O=C(NC(=S)Nc1cc(Cl)ccc1O)c1cccc(Br)c1 | -26 | . | 4243 | .

no. | Mtb hypoxia rep growth | ugtP null kill | BJeLR viability
1 | 9 | 0 | 2
2 | 1 | 0 | .
3 | 5 | -7 | .
4 | -2 | 12 | 1
5 | -1 | 0 | -2
6 | 6 | 1 | 4
7 | 9 | 3 | -4
8 | -1 | 11 | -3
9 | -4 | 1 | .
10 | . | . | 3

New compounds follow:
no. | SMILES | PrP UTR inh | Sa RN4220 lethal | Autofluor counter | Mtb hypoxia rep
11 | CC(C)OP(=O)(OC(C)C)C(C)NC(=O)Cc1ccccc1 (centres undefined) | -46 | 2.5 | 4272 | 8
12 | CCOC(=O)c1sc(NC(=O)c2cccc(S(=O)(=O)N3CCc4ccccc43)c2)c(C#N)c1C | -6 | 6.9 | 4720 | -3
13 | CSC1=NSC2=NC(=O)/C(=C/c3coc4ccccc4c3=O)C(=N)N12 | -24 | 22 | 2294 | 6
14 | Cc1ccc(CNC(=O)c2ccc(N3CCC4(CC3)CC(c3ccccc3)=NO4)c(NC(=O)c3ccco3)c2)cc1 | -8 | 13 | 4071 | -4
15 | O=S(=O)(Nc1cccc(Cl)c1)c1cccc(-n2cnnn2)c1 | -20 | 3.7 | 3353 | 15
16 | Oc1ccccc1/C=N/Nc1cc(N2CCCC2)nc(N2CCCC2)n1 | -10 | . | 10412 | .
17 | Cc1ccc(CC(=O)OCC(=O)c2ccc[nH]2)cc1C | 2 | 10 | 2925 | 5
18 | O=C(c1ccccc1)N1CCN(CC2CC=CCC2)CC1 (centres undefined) | -13 | 2.1 | 6159 | 14
19 | CCNCc1cc([N+](=O)[O-])ccc1OCC | -24 | 2.1 | 4704 | -7
20 | CCOC(=O)c1c(/N=C/c2ccc(C)cc2O)sc2c1CCC2 | 2 | . | 1987 | .

no. | Mtb hypoxia rep growth | ugtP null kill | BJeLR viability
11 | -1 | -7 | 8
12 | 4 | 17 | 31
13 | 7 | -7 | .
14 | 9 | -13 | 1
15 | 13 | 3 | .
16 | . | . | 7
17 | -5 | 7 | .
18 | 24 | 4 | -14
19 | -6 | -5 | 15
20 | . | . | 9

More entries follow.
no. | SMILES | PrP UTR inh | Sa RN4220 lethal | Autofluor counter | Mtb hypoxia rep
21 | CCC(=O)c1ccc(OCC(=O)c2ccc3c(c2)NC(=O)CO3)cc1 | -16 | 0.5 | 5057 | 1
22 | CCC1(CC)NC(=S)NC1=S | -9 | 4.4 | 3859 | 10
23 | Cc1ccc(CN2CN(S(=O)(=O)c3cccs3)c3nc4ccccc4nc32)cc1 | -44 | -5.0 | 3418 | 0
24 | Cc1cc(=O)oc2cc3c(cc12)OCCN3 | -8 | -2.0 | 3010 | .
25 | COCc1cc(/C=N\NC(=O)COc2ccccc2)ccc1OC | -14 | . | 2496 | .
26 | COc1ccc(S(=O)(=O)N2CCN(C)CC2)cn1 | -31 | 1.9 | 6607 | 4
27 | COn1c(=O)c(-c2ccc(Cl)cc2)[n+]([O-])c2ccccc21 | -6 | 1.9 | 4140 | .
28 | COc1cccc(-c2nc(N3CCC(C)CC3)c3ccccc3n2)c1O | -1 | -15 | 3990 | .
29 | Cc1ccc(S(=O)(=O)N(C)c2ccc(C(=O)N(C)Cc3nc4ccccc4c(=O)[nH]3)cc2)cc1 | -8 | 1.7 | 5501 | -11
30 | COc1ccccc1N(CN1CCCC1=O)C(=O)c1ccccc1F | -9 | 3.0 | 4143 | 6

no. | Mtb hypoxia rep growth | ugtP null kill | BJeLR viability
21 | 2 | 3 | -3
22 | 8 | -1 | .
23 | 5 | -3 | -3
24 | . | 2 | 6
25 | . | . | 0
26 | 3 | 2 | -7
27 | . | 6 | 9
28 | . | -3 | 19
29 | 4 | -2 | .
30 | 2 | 4 | 4

Part of the list above, as a markdown table:
| cpd | structure | PrP UTR inh | Sa RN4220 lethal | Autofluor counter | Mtb hypoxia rep | Mtb hypoxia rep growth | ugtP null kill | BJeLR viability |
| --- | --- | --- | --- | --- | --- | --- | --- | --- |
| 21 | CCC(=O)c1ccc(OCC(=O)c2ccc3c(c2)NC(=O)CO3)cc1 | -16 | 0.5 | 5057 | 1 | 2 | 3 | -3 |
| 22 | CCC1(CC)NC(=S)NC1=S | -9 | 4.4 | 3859 | 10 | 8 | -1 | . |
| 23 | Cc1ccc(CN2CN(S(=O)(=O)c3cccs3)c3nc4ccccc4nc32)cc1 | -44 | -5.0 | 3418 | 0 | 5 | -3 | -3 |
| 24 | Cc1cc(=O)oc2cc3c(cc12)OCCN3 | -8 | -2.0 | 3010 | . | . | 2 | 6 |

Further entries
no. | SMILES | PrP UTR inh | Sa RN4220 lethal | Autofluor counter | Mtb hypoxia rep
31 | Cc1ccc(C)c(-n2c(SCC(=O)Nc3nonc3C)nnc2-c2ccoc2C)c1 | 2 | 1.0 | 4269 | .
32 | Cc1onc(-c2c(F)cccc2Cl)c1C(=O)OCC(=O)N1C(C)CCCC1C (centres undefined) | 3 | 3.5 | 3175 | 7
33 | Cc1cccc(NC(=O)CCOc2ccccc2)c1C | 9 | 3.3 | 4332 | 15
34 | COc1cccc(/C=N/NC(=O)COc2cccc3cccnc23)c1O | -31 | . | 3367 | .
35 | Cc1cc(C)cc(OCC(=O)Nc2cccc(C(=O)O)c2)c1 | -18 | 5.0 | 17933* | 8
36 | Cc1ccc(NC(=S)NN2CCN(C)CC2)c(C)c1 | -25 | 5.1 | 2152 | 7
37 | Cc1ccc(OCC(=O)N(Cc2ccc(N(C)C)cc2)C2CCS(=O)(=O)C2)cc1 (centres undefined) | -20 | 7.0 | 4320 | 8
38 | CCn1c(Sc2ccc([N+](=O)[O-])cn2)nnc1-c1ccco1 | -8 | 1.6 | 2279 | -3
39 | COCCn1c(N)c(N(Cc2ccccc2)C(=O)Cc2ccccc2F)c(=O)[nH]c1=O | -9 | 4.9 | 4461 | 14
40 | Cc1cc(C)c(C#N)c(SCC(=O)N(CC(C)C)C2CCS(=O)(=O)C2)n1 (centres undefined) | -8 | 2.4 | . | -7

no. | Mtb hypoxia rep growth | ugtP null kill | BJeLR viability
31 | . | -6 | -17
32 | 4 | 5 | .
33 | -3 | 3 | -8
34 | . | . | -17
35 | 2 | 6 | -7
36 | 4 | 9 | -2
37 | 11 | 7 | 0
38 | 5 | -5 | -3
39 | -1 | 5 | .
40 | -8 | 4 | .

Next structures follow:
no. | SMILES | PrP UTR inh | Sa RN4220 lethal | Autofluor counter | Mtb hypoxia rep
41 | CS(=O)(=O)N(CC(=O)N1CCOCC1)c1cccc(Cl)c1Cl | -6 | 2.4 | 4133 | -6
42 | O=C(O)CCn1cc(/C=C2/NC(=S)N(c3ccccc3)C2=O)c(-c2ccccc2)n1 | -27 | 2.9 | 1985 | -4
43 | O=C(Nc1ccccc1)Nc1nnc(Cc2ccc([N+](=O)[O-])cc2)s1 | -3 | -1.7 | 2199 | 0
44 | COc1cc(/C=N\n2nnnc2N)ccc1OCc1ccc(F)cc1 | -15 | . | 2422 | .
45 | CCOC(=O)C1CCCN(C(=S)Nc2ccc(F)cc2)C1 (centres undefined) | -19 | 3.5 | 4456 | 5
46 | COc1cc(NC(=O)Cn2c(-c3cncs3)nc3ccccc32)cc(OC)c1OC | 8 | 2.0 | 21248* | 2
47 | O=c1[nH]c(=O)n(Cc2ccccc2)c(O)c1/C=C1\C=Nc2ccccc21 | -15 | 1.9 | 4764 | -2
48 | COCC1CCN(C(=O)c2cc(COc3ccc(F)cc3F)on2)C1 (centres undefined) | -17 | 2.4 | 5478 | 5
49 | CCOC(=O)CC(N)c1cccc([N+](=O)[O-])c1 (centres undefined) | -17 | 3.0 | 3853 | -7
50 | CCC(CC(c1ccccc1)c1c(O)c2ccccc2oc1=O)=NNC(N)=S (centres undefined) | . | 11 | . | 8

no. | Mtb hypoxia rep growth | ugtP null kill | BJeLR viability
41 | 0 | 3 | -6
42 | -6 | 1 | 1
43 | 0 | -8 | -1
44 | . | . | 10
45 | 6 | 5 | 9
46 | 13 | -4 | -9
47 | 15 | 2 | 1
48 | 1 | 1 | 13
49 | 4 | 0 | -3
50 | 7 | 1 | .

Next part:
no. | SMILES | PrP UTR inh | Sa RN4220 lethal | Autofluor counter | Mtb hypoxia rep
51 | Brc1c(OCCOCCn2cncn2)ccc2ccccc12 | -19 | 5.7 | 4349 | .
52 | O=C(/C=C/c1ccccc1[N+](=O)[O-])Nc1ccc(S(=O)(=O)Nc2ncccn2)cc1 | -11 | -0.9 | 5698 | 23
53 | c1cncc(C2CCCN2)c1 (centres undefined) | . | 2.9 | . | 2
54 | COc1ccc(-c2ccccc2)c2oc(-c3ccco3)cc(=O)c12 | . | 5.0 | . | 17
55 | COc1ccc(NC(=O)C(Cc2cc(C)cc(C)c2)C(C)C(=O)O)cc1 (centres undefined) | 0 | . | 4258 | .
56 | Cc1cc(C(=O)Nc2ccon2)c(C)o1 | -19 | 11 | 4012 | 12
57 | O=C(O)c1cc(NC(=O)c2cccc(F)c2)cc(NC(=O)c2cccc(F)c2)c1 | -12 | 3.2 | 3597 | 10
58 | O=C(CCNS(=O)(=O)c1ccc2c(c1)CCC(=O)N2)NCc1ccc2c(c1)OCO2 | -3 | 1.2 | 9735 | -7
59 | Nc1nc(Cl)nc2ncn(Cc3ccccc3)c12 | -9 | 2.4 | 4082 | 8
60 | Cc1csc(NC(=O)c2cccc(C)c2C)n1 | -64 | 2.5 | 2605 | 16

no. | Mtb hypoxia rep growth | ugtP null kill | BJeLR viability
51 | . | -2 | 0
52 | 32 | -3 | -3
53 | 2 | -2 | -6
54 | 9 | 7 | 0
55 | . | . | -2
56 | 5 | 8 | 0
57 | 8 | 20 | 9
58 | 6 | 1 | 1
59 | -6 | 5 | 3
60 | 4 | 1 | 13

(continued)
no. | SMILES | PrP UTR inh | Sa RN4220 lethal | Autofluor counter | Mtb hypoxia rep
61 | O=C(C1CCN(S(=O)(=O)c2cccc3cccnc23)CC1)N1CCc2ccccc21 | -6 | 1.1 | 2278 | .
62 | CSc1ccccc1OCc1cc(C(=O)N(C)Cc2ccc(C)o2)no1 | -46 | 4.5 | 7018 | 3
63 | CCN1C(=O)c2ccccc2S(=O)(=O)c2ccc(C(=O)NC(C)C)cc21 | -9 | 0.9 | 3769 | 1
64 | Cc1cc(N2C(=O)C(O)=C(C(=O)c3cc4ccccc4o3)C2c2ccc(OC(C)C)cc2)no1 (centres undefined) | -9 | 100* | 8033 | 3
65 | CC(C)[C@H](NS(=O)(=O)c1ccccc1F)C(=O)OCC(=O)Nc1cccc(S(N)(=O)=O)c1 | -20 | 7.2 | 4216 | 9
66 | CC(C)(C)C(=O)NC(=S)Nc1ccc(F)cc1 | -31 | 2.5 | 1986 | 21
67 | CCCc1ccc(-c2cc(C(=O)NC3=NCCS3)c3ccccc3n2)cc1 | -126 | 3.9 | 2656 | 4
68 | O=C(O)C1CCCCC1C(=O)NCCCc1ccccc1 (centres undefined) | -14 | 4.7 | 4697 | 8
69 | NC(=O)CCn1ccc2ccccc21 | -20 | 9.0 | 4434 | -3
70 | COCCn1c(SCC(=O)NC2CCCC2)nc2cccnc21 | -2 | 6.1 | 4778 | 8

no. | Mtb hypoxia rep growth | ugtP null kill | BJeLR viability
61 | . | 8 | 9
62 | 5 | -6 | 3
63 | 8 | 13 | 5
64 | 7 | 100* | -6
65 | 6 | 8 | .
66 | 8 | 15 | -5
67 | 6 | 9 | 2
68 | 13 | -5 | -13
69 | 3 | 4 | 0
70 | 1 | -8 | 14
